Mtb bLac sens: beta-lactam sensitization of Mtb H37Rv, H37Rv. M. tuberculosis H37Rv growth with meropenem, percent inhibition; hits of this screen are not shown here. inhibition, % at 25 µM. 0.27% of 330,000 active. AID 434955, 2010;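 active = about 74% or more and at least 40 points above the plate without the antibiotic, then above 30% in a dose series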;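 note: growth measured after seven days incubation then overnight dye step; 0% = bacteria only wells and 100% = bacteria with antibiotic; twin plates without the antibiotic show which effects depend on it; some results filed as inactive read as strong as hits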
Mtb growth: M. tuberculosis H37Rv growth inhibitors, H37Rv strain (AID 1626); M. tuberculosis H37Rv growth inhibition; higher % means a stronger effect; inhibition, % at 10 µM; hits with a dose series show IC50 in µM; 0.95% of 220,000 active;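 active = confirmed in a dose series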;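 note: bacteria incubated seven days before Alamar blue readout; 0% = bacteria only wells and 100% = bacteria with antibiotic wells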
RecA intein inh: Mtb RecA intein splicing inhibitors, primary screen, biochemical, fluorescence, HTS; Protein RecA (Mycobacterium tuberculosis (strain ATCC 25618 / H37Rv)), P9WHJ3; cell-free RecA intein splicing; inhibition, %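 (about 9 µM by stock and volumes)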; 0.75% of 290,000 active; AID 2221, 2009; in the data active = inhibition above about 30%;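 note: 0% = vehicle wells and 100% = reference inhibitor control wells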
Target sequence (P9WHJ3 whole entry, looked up): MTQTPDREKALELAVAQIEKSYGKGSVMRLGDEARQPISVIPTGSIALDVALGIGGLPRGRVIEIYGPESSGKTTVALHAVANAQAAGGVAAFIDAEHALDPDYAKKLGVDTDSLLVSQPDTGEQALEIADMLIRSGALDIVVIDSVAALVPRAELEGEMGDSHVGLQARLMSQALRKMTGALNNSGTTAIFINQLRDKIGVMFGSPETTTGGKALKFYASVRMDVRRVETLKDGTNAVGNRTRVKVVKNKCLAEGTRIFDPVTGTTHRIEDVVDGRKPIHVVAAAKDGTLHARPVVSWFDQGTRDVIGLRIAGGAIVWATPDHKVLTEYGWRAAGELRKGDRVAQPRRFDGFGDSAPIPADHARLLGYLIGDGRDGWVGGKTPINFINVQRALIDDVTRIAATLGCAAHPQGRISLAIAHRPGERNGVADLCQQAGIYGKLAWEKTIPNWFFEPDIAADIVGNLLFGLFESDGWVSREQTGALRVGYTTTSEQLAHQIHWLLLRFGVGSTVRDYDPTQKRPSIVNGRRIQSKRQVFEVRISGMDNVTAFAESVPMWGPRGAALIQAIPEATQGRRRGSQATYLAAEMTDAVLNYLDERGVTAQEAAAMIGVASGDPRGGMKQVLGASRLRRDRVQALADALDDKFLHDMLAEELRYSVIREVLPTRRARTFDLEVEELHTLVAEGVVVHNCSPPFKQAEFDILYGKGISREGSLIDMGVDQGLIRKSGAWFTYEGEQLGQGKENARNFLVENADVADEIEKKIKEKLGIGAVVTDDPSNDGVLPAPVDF
Arbovirus anti: antivirals against arbovirus infection, primary screen, cell-based, full library, 10K replicate subset | arbovirus infection cell-based antiviral screen | inhibition, % at 10 µM | 0.37% of 200,000 active | AID 1251, 2008;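 active = inhibition from about 30%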;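 note: bluetongue infection of BSR cells; cell survival read as ATP light after 72 h; 0% = infected wells without compound and 100% = uninfected wells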
YopH PTP inh: YopH tyrosine phosphatase inhibitors, primary screen, biochemical, fluorescence Ex485/Em525; YopH tyrosine phosphatase [Yersinia enterocolitica]; inhibition, %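 (about 10 µM by stock and volumes)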; 0.16% of 140,000 active; AID 898, 2007;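 active = inhibition of 50% or more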;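 note: controls were vehicle for no effect and minimum signal wells for full effect; inactives centre near -20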
Arbovirus anti repeat: further read-out of Arbovirus anti, marked with its call; inhibition, %; measured here: 10K subset replicate screen; many hits read low in the repeat;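 first of two repeat runs on a subset; 0% = infected and 100% = uninfected wells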
The depositor's hits bear a star; nt = no result given. An excerpt; count on the stated rates, not on these rows.

SMILES	Mtb bLac sens	Mtb growth	RecA intein inh	Arbovirus anti	YopH PTP inh	others
O=C(O)COc1cccc(/C=C2/SC(=S)N(Cc3ccccc3)C2=O)c1	3	nt	45*	nt	nt
COc1ccc(CN2CCOCC2)c(C)c1C	-7	-8%	-2.4	2	-24
O=C(COC(=O)CCCN1C(=O)c2cccc3cccc(c23)C1=O)Nc1cccc(Br)c1	3	-1%	-0.2	4	-2
CCOC(=O)C(C)On1c(-c2ccccc2)nc2ccc([N+](=O)[O-])cc21 (stereo unspecified)	15	2%	4.5	-4	-16
COc1ccc(N2CCN(C(CNC(=O)C(C)(C)C)c3ccco3)CC2)cc1 (stereo unspecified)	-6	84%	-3.4	4	nt
CC1=NN(C(=O)Cn2ccc([N+](=O)[O-])n2)C(O)(C(F)(F)F)C1 (stereo unspecified)	6	4%	1.6	2	10
O=C(OCCN1C(=O)c2ccccc2C1=O)c1ccco1	-8	-9%	-0.8	-3	-15
CC(C)Cc1nnc(NC(=O)CCC(=O)NC2CCCc3ccccc32)s1 (stereo unspecified)	-2	6%	1.1	-7	-7
COc1cccc(OCc2cc(/C=N/NC(=O)c3ccn[nH]3)ccc2OC)c1	-3	7%	0.5	-17	-20
O=C(Nc1cccnc1)C1CCCN(S(=O)(=O)c2cccc3nsnc23)C1 (stereo unspecified)	-4	-10%	3.5	6	-8
CN(C)/C=N/c1c(C#N)cnn1-c1nc2ccccc2s1	-2	-12%	-1.1	-6	-33	Arbovirus anti repeat=4
Cc1ccc2c(c1)C=CC(C)N2C(=O)c1ccccc1 (stereo unspecified)	1	11%	-3.3	-7	-7
COc1cccc(/C=C/C(=O)c2cccc([N+](=O)[O-])c2)c1	99	6.9µM*	0.4	-13	nt
COC(=O)c1ccc(C(NC(=O)OCc2ccccc2)/C(C)=C/[C@@H](C)C(=O)NCc2ccc(-c3ccccc3)cc2)cc1 (stereo partly specified)	8	3%	2.2	-5	-19
CC(=O)O[C@H]1CC[C@@]2(C)C(=CC[C@H]3[C@@H]4CC[C@H](C5(C)OCCO5)[C@@]4(C)CC[C@@H]32)C1	-1	nt	2.8	nt	nt
Cc1ccc(S(=O)(=O)N2CCOCC2)cc1NC(=O)COC(=O)C1COc2ccccc2O1 (stereo unspecified)	-2	1%	0.2	-5	-13
CCN(CC)CCCn1c(=S)[nH]c2ncccc2c1=O	4	-4%	-0.3	-1	20
CC(C)(C)CC(C)(C)NC(=S)Nc1ccc(S(=O)(=O)N2CCOCC2)cc1	2	7%	1.1	11	-18
Cc1cc(=O)[nH]c(SCCOc2cccc(C(F)(F)F)c2)n1	0	13%	-5.0	5	-28
CSc1ccc(Cl)c(C(=O)NCCOc2cc(C(C)C)ccc2C)c1	-1	6%	9.5	-2	-24
COc1ccc2nc(C)cc(Nc3ccc(N4CCOCC4)cc3)c2c1	7	12%	3.2	1	-22
CCS(=O)(=O)Nc1ccc(C(=O)NCCSc2ccccc2)cc1	-6	nt	1.6	nt	nt
Cc1ccccc1OCC(O)CN1CCN(CC(O)COc2ccccc2C)C(C)C1 (stereo unspecified)	8	nt	-8.1	nt	nt
O=C(c1ccc2c(c1)OCO2)N1CCN(c2ccc(F)cc2)CC1	4	-4%	0.9	1	-48
O=[N+]([O-])c1nn(-c2ccc(Cl)cc2)n(O)c1=NCc1cccnc1	99	8%	1.5	-28	-36

(list continues)
SMILES	Mtb bLac sens	Mtb growth	RecA intein inh	Arbovirus anti	YopH PTP inh	others
Oc1ccc(Br)cc1Cn1nnc2ccccc21	1	nt	4.6	nt	nt
COc1ccc(-n2nnnc2CNC(=O)c2ccc3c(c2)OCO3)cc1	-15	nt	-3.6	nt	nt
Cc1cccc(NC(=O)Nc2cc(C)on2)c1	2	nt	-0.3	4	-17
CSCCC(NS(=O)(=O)c1ccccc1F)C(=O)NCc1ccncc1 (stereo unspecified)	-7	nt	0.2	nt	nt
O=C1CC(/C=C/c2ccc(Cl)cc2)=Nc2ccccc2N1	100	6.7µM*	5.2	8	nt
CC(=O)N1c2ccc(S(=O)(=O)NCCC(=O)Nc3ccc(C)c(Cl)c3)cc2CC1C (stereo unspecified)	10	nt	-0.9	nt	nt
Cc1ccc(OCCN2CCN(C(=O)CCC(=O)Nc3nnc(C)s3)CC2)cc1	-5	17%	nt	6	-33
CN(CC(=O)Nc1ccc(Cl)c(C(F)(F)F)c1)C(=O)CCN1C(=O)C2CCCCC2C1=O (stereo unspecified)	-2	nt	1.2	nt	nt
CCCCc1nc2cc(C(=O)NCc3ccccn3)ccc2o1	6	nt	3.7	nt	nt
Cc1ccc(-n2nc3c(c2NC(=O)c2ccccc2Br)CS(=O)C3)cc1 (stereo unspecified)	8	11%	0.0	0	-54
CC(c1nnc(SCC(=O)N2CCc3ccccc32)n1-c1ccc(Cl)cc1)N(C)C (stereo unspecified)	-2	2%	2.4	14	-20
O=C(O)C1CC(=O)N(c2ccc3c(c2)OCCO3)C1 (stereo unspecified)	-5	5%	-4.0	5	-9
C#Cc1ccc([C@H]2C=C(C(=O)N3CCN(Cc4ccc5c(c4)OCO5)CC3)O[C@@H](OCc3ccc(CO)cc3)C2)cc1	96	nt	4.3	-7	nt
Cc1ccc(Cl)cc1NC(=S)N(CCN(C)C)C(C)c1ccccn1 (stereo unspecified)	0	-3%	-4.7	11	nt
CCCNC(=O)c1nn2c(C(F)(F)F)cc(-c3ccccc3)nc2c1Cl	0	nt	-24	nt	nt
CCC(c1nnnn1Cc1ccco1)N1CCN(c2cc(Cl)ccc2C)CC1 (stereo unspecified)	39	nt	12	-14	-24
COCCn1c(SCC(=O)Nc2ccc(N3CCOCC3)cc2)nc2ccccc21	-6	-8%	-0.8	-11	-37
Cn1nc(C(F)(F)F)c2cc(C(=O)Nc3ccc(F)c(Cl)c3)sc21	1	52%	7.8	nt	nt
CCOc1ccccc1CNC(=O)CCN1C(=O)COc2ccccc21	10	4%	4.0	-4	-23
Cc1cccc2sc(NC(=O)C3CCCO3)nc12 (stereo unspecified)	3	-9%	5.7	-1	-18
COC(=O)c1ccccc1NC(=O)c1ccccc1N(C)S(C)(=O)=O	2	4%	3.5	0	-22
O=C(OCn1cncn1)c1ccc(Cl)cc1Cl	82	-5%	1.9	-2	-24
CCOC(=O)C1CCCN(CCC(=O)Nc2ccc(C)cc2)C1 (stereo unspecified)	2	-1%	2.0	3	-12
CCOc1ccc(OCC)c(N=c2oc3c(C)ncc(CO)c3cc2C(N)=O)c1	9	nt	-0.3	-4	-32
CCC1C(=O)C(CC)C(c2ccccc2)NC1c1ccccc1 (stereo unspecified)	4	nt	17	nt	nt

(cont.)
SMILES	Mtb bLac sens	Mtb growth	RecA intein inh	Arbovirus anti	YopH PTP inh	others
COC(=O)c1cc2nc(-c3ccccc3)cc(C(F)(F)F)n2n1	4	11%	-6.0	-4	-10
C/C(=N/NC(=O)C1CC1(c1ccccc1)c1ccccc1)c1cccs1 (stereo unspecified)	3	-14%	3.1	12	-39
CCOC(=S)SCC(=O)N1CCc2ccccc2C1C1C(=O)CCCC1=O (stereo unspecified)	12	-13%	1.1	3	-14
O=C(Cc1ccc(Cl)cc1)Nc1ccc(-c2nnc(-c3ccco3)o2)cc1	10	1%	-1.8	-2	-38
CC(C)C[C@H](NC(=O)c1nc[nH]c1C(=O)NC1CCN(C(=O)OC(C)(C)C)CC1)C(=O)OCc1ccccc1	98	68%	1.2	-20	nt
Cc1nn(C(C)C(=O)N2CCN(c3ccccn3)CC2)c(=O)c2cc3occc3n12 (stereo unspecified)	-8	-7%	0.9	-8	-45
COc1ccc(CC(=O)NNS(=O)(=O)c2ccc3ccccc3c2)cc1OC	2	5%	-1.5	8	-10
CSc1ccc(S(=O)(=O)Nc2ccc3c(c2)OCCO3)cc1	-7	10%	4.4	14	-33	Arbovirus anti repeat=18
Cc1ccc(NC2=CC(=O)CC(C)(C)C2)cc1Cl	46	nt	18	nt	nt
Nc1n[nH]c(N)c1N=Nc1ccc2c(c1)OCO2	16	13%	2.6	-9	nt
Cc1ccc(OCc2cc(C(=O)N(C)Cc3cnc4ccccn34)no2)cc1C	92	nt	5.4	nt	nt
CCCCN1C(=O)N(c2ccccc2Cl)C(C)(O)CC1(C)C (stereo unspecified)	-5	nt	1.2	nt	nt
Cc1ccc(NC(=O)CC2Oc3ccccc3NC2=O)c(C)c1 (stereo unspecified)	7	-13%	nt	8	-48
Cc1ccc(-c2csc(N(C)C(=O)c3c(C)nn(-c4ccccc4)c3Cl)n2)cc1	12	2%	0.2	3	-40
COc1ccc(C2CC(c3ccccc3)Nc3nc(N)nn32)cc1 (stereo unspecified)	8	2%	nt	-4	-13
COc1cc(Nc2c3c(nc4ccccc24)CCCC3)cc(OC)c1OC	1	-6%	-2.2	-25	nt
COc1ccc(OC)c(-c2nc(C(=O)NC3CCN(Cc4ccccc4)CC3)cc3c2[nH]c2ccccc23)c1	-8	nt	13	nt	nt
Cc1cccc(Cn2c(C(C)(C)C)cc3cccnc32)c1	-7	2%	3.2	-14	-1
O=C(Nc1nccs1)c1cc(N2CCOCC2)nc2ccccc12	9	-1%	-8.1	-4	-29
CCOC(=O)C1CCN(C(=O)Cc2cccs2)CC1	-11	1%	0.4	6	-13
O=C(O)Cc1ccc(S(=O)(=O)Nc2ccccc2C(=O)O)cc1	14	-2%	4.9	5	nt
COc1ccc(C(C(=O)NC2CCCCC2)N(C(=O)CCl)c2cccc(Cl)c2)cc1 (stereo unspecified)	1	-5%	59*	-38	-30
Cc1ncoc1C(=O)Nc1ccc2c(c1)OCCO2	-10	-10%	-2.9	-3	-52
CCCc1ccc(OCc2ccc(C(=O)N/N=C/c3cccc([N+](=O)[O-])c3)o2)c(OC)c1	-2	-3%	-4.3	2	-23
COc1ccc(S(=O)(=O)N(CC(=O)N2CCN(C)CC2)c2ccc(C)cc2)cc1OC	-3	2%	-0.9	4	-17

New compounds follow:
SMILES	Mtb bLac sens	Mtb growth	RecA intein inh	Arbovirus anti	YopH PTP inh	others
COc1cc(C(=O)Nc2ccc(-c3nnc(-c4ccco4)o3)cc2)cc(OC)c1OC	-2	-4%	-1.6	1	-13
CC(=O)Cc1c(C(=O)O)c(C)nn1-c1ccccc1	-4	0%	-2.8	11	nt
Cc1nc(NCCCn2ccnc2)c2ccccc2n1	-2	-2%	0.1	-3	-29
CCOC(=O)c1nc(C)n(-c2cc(Cl)ccc2Cl)n1	9	-5%	-1.0	1	-26
Cc1c(CCO)c(=O)[nH]n1S(=O)(=O)c1ccc(Cl)cc1Cl	-5	nt	-1.5	nt	nt
Cc1cc(C)n(CC(O)Cn2ccc3ccccc32)n1 (stereo unspecified)	-5	-2%	nt	6	-15

Sorted by heavy-atom count (ascending): part of the list above.
SMILES	Mtb bLac sens	Mtb growth	RecA intein inh	Arbovirus anti	YopH PTP inh	others
CCOC(=O)c1nc(C)n(-c2cc(Cl)ccc2Cl)n1	9	-5%	-1.0	1	-26
Cc1cc(C)n(CC(O)Cn2ccc3ccccc32)n1 (stereo unspecified)	-5	-2%	nt	6	-15
Cc1c(CCO)c(=O)[nH]n1S(=O)(=O)c1ccc(Cl)cc1Cl	-5	nt	-1.5	nt	nt
COc1ccc(C(C(=O)NC2CCCCC2)N(C(=O)CCl)c2cccc(Cl)c2)cc1 (stereo unspecified)	1	-5%	59*	-38	-30
COc1cc(C(=O)Nc2ccc(-c3nnc(-c4ccco4)o3)cc2)cc(OC)c1OC	-2	-4%	-1.6	1	-13
CCCc1ccc(OCc2ccc(C(=O)N/N=C/c3cccc([N+](=O)[O-])c3)o2)c(OC)c1	-2	-3%	-4.3	2	-23

Random excerpt: 2 compounds from above.
SMILES	Mtb bLac sens	Mtb growth	RecA intein inh	Arbovirus anti	YopH PTP inh	others
CCOC(=O)c1nc(C)n(-c2cc(Cl)ccc2Cl)n1	9	-5%	-1.0	1	-26
COc1cc(C(=O)Nc2ccc(-c3nnc(-c4ccco4)o3)cc2)cc(OC)c1OC	-2	-4%	-1.6	1	-13

By substructure, those above containing a thiophene ring, fused or not (three)
SMILES	Mtb bLac sens	Mtb growth	RecA intein inh	Arbovirus anti	YopH PTP inh	others
Cn1nc(C(F)(F)F)c2cc(C(=O)Nc3ccc(F)c(Cl)c3)sc21	1	52%	7.8	nt	nt
C/C(=N/NC(=O)C1CC1(c1ccccc1)c1ccccc1)c1cccs1 (stereo unspecified)	3	-14%	3.1	12	-39
CCOC(=O)C1CCN(C(=O)Cc2cccs2)CC1	-11	1%	0.4	6	-13
